Calb biofilm kill: mixture kills Candida albicans biofilm cells; C. albicans biofilm persisters + clotrimazole, fluorescence viability; primary screen in compound mixtures of four per well; inhibition, % at 7.6 µM; 0.02% of 120,000 active; AID 1242;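 active = inhibition above 30.3% in the primary screen of four-compound pools, then above 30% when the compound was retested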;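 note: compounds exposed to preformed 24 h biofilms for 48 h; the number belongs to the whole pool; some results filed as inactive read as strong as hits; inactives centre near 12; 0% = biofilm with clotrimazole alone and 100% = kill control; retested singly at about 60 µM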
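Test system: C. albicans CAF4-2 wild-type biofilms; buffer or medium: RPMI/MOPS medium, pH 7.0; schedule: 24 h biofilm formation, then 48 h compound exposure, 37 °C; detection: Alamar Blue fluorescence; measure: percent inhibition of biofilm viability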
* marks the source's active call; other numbers are inactive results.

mol | Calb biofilm kill
CCC(C)(C)c1ccc(Oc2ccc(N)cc2)cc1 | 11.5
CCOC(=O)C1=C(O)C(=O)NC(c2ccccc2)=C(OC2CCCCC2)C1 | 3.2
Cn1c(N)c(C(=O)COC(=O)c2ccc([N+](=O)[O-])o2)c(=O)n(C)c1=O | 29.2
O=C(c1ccc(O)cc1)c1ccc(O)cc1O | 24.6
Cc1ccc(S(=O)(=O)N2CCN(C(=O)c3ccccn3)CC2)c(C)c1 | 5.8
CCOC(=O)N/N=C/c1ccc(N(CC)CC)cc1O | 16.4
O=C(COc1ccc(/C=N/NC(=O)c2ccc(O)cc2)cc1)Nc1cccc([N+](=O)[O-])c1 | 4.3
C=C1CCN(C(Cc2ccccc2)C(=O)OC)S(=O)(=O)c2ccc(F)cc21 (centres undefined) | 16.2
Cc1ccccc1NC(=O)CSc1nnc(C)c(=O)[nH]1 | 21.9
CC1=NNC(=O)C1C(c1ccc(Cl)cc1)C(C#N)C#N (centres undefined) | 8.7
COc1ccc(-c2cc(=O)oc3c(C)c(OC(=O)c4cccs4)ccc23)cc1 | 11.5
Cc1ccc(-c2c[n+](CC(=O)Nc3nc(-c4ccccc4)cs3)c3n2CCC3)cc1 | 9.6
C/C(=N\OCc1nc2ccccc2c(=O)n1/N=C/c1cc(C)cc([N+](=O)[O-])c1O)c1ccccc1 | 5.2
O=C(O)CSC(C(=O)Nc1ccc(Br)cc1)c1ccccc1 (centres undefined) | 5.8
COC(=O)c1cn(C(=O)c2ccc(C)cc2C)c2ccccc12 | 11.0
N#CCC(=O)Nc1ccc(C(=O)OCC(=O)Nc2ccccc2Sc2ccccc2)cc1 | 14.1
COc1ccc(Cc2nc3c4c(ncn3n2)Oc2c(ccc3ccccc23)C4c2ccc(OC)c(OC)c2)cc1 (centres undefined) | 6.0
Cc1ccc(/C=C/C(=O)O)cc1S(=O)(=O)N(C)CCO | 11.3
CCN(CC)S(=O)(=O)c1ccc(N2CCCC2)c(NS(=O)(=O)c2cccs2)c1 | 5.1
CCc1nnc(NS(=O)(=O)c2ccc(N=Cc3c(C)[nH]n(-c4ccc(C)c(C)c4)c3=O)cc2)s1 | 9.4
COc1ccc(C)cc1NC(=O)CSc1ccc(-c2cccnc2)nn1 | 11.1
CSc1sc(-c2n[nH]c(=S)n2C)c2c1C=CCC2 | 21.9
Cc1ccc(NC(=O)c2cccc(OCc3c(C)noc3C)c2)cc1S(=O)(=O)Nc1ccccc1Cl | 14.4
CCCCCCC1CC(CCc2nc(=S)[nH][nH]2)C(=O)O1 (centres undefined) | 19.6
C/C(=N\NC(=O)C1CC1)c1ccccc1O | 13.4
O=C(O)/C=C/C(=O)N(Cc1ccc2c(c1)OCO2)C1CC(=O)N(CCc2ccccc2)C1=O (centres undefined) | 10.8
CC(C)(C)c1cc(C(=O)NN)n(Cc2ccc(F)cc2)n1 | 20.9
CC(=O)c1c(C)[nH]c(C(=O)Nc2cccc(S(=O)(=O)N3CCOCC3)c2)c1C | 17.3
O=C(NCc1ccc2c(c1)CCO2)Nc1cccc(C(F)(F)F)c1 | 7.4
CN1c2ccccc2C(=O)/C(=C\Nc2ccc(F)cc2)S1(=O)=O | 18.5
C=CC[n+]1c(-c2ccc(Cl)cc2Cl)csc1Nc1c(C)n(C)n(-c2ccccc2)c1=O | 17.1
Cc1ccc(NC2=C(Cl)C(=O)OC2OC(=O)c2ccco2)cc1C (centres undefined) | 9.3
CSCCC(NC(N)=O)C(=O)Nc1ccc2ccccc2c1 (centres undefined) | 13.2
Nc1nonc1C(=O)N/N=C/c1ccncc1 | 2.9
COc1ccc(/C=C/C(=O)NC(=S)N2CCN(C)CC2)cc1 | 7.8
CCOC(=O)c1cn2nc(Oc3ccccc3)ccc2n1 | 21.2
Cn1nccc1C(=O)Nc1ccn(C23CC4CC(CC(C4)C2)C3)n1 | 4.8
CCCCn1c(SCC(=O)NC2CC(C)(C)NC(C)(C)C2)nc2cc(S(N)(=O)=O)ccc21 | 21.3
NC(=O)c1ccc(N2CCN(c3ccccc3F)CC2)c([N+](=O)[O-])c1 | 0.1
COc1ccc(NC(=O)CSc2nncc3ccccc23)cc1 | 8.8
COC(=O)c1cccc2c1NC(=O)C2=O | 22.3
O=C1CCCc2c1cnc1ncnn21 | 10.8
COc1ccc(C)cc1NC(=S)N1CCN(S(C)(=O)=O)CC1 | 6.1
Fc1ccc(Cn2nnnc2C(c2cccs2)N2CCN(C3CCCCC3)CC2)cc1 (centres undefined) | 6.4
CCCCCCOc1ccc(/C=c2\s/c(=C(/C#N)C(=O)NCc3ccco3)n(-c3ccccc3)c2=O)cc1 | 11.3
CCNC(=O)n1cc(-n2cncn2)c(-c2ccc(Cl)cc2)n1 | 4.2
O=C(Nc1c2c(nn1-c1ccccc1)CS(=O)C2)c1ccc(S(=O)(=O)N2CCOCC2)cc1 (centres undefined) | 31.9
CCCCNC(=S)N=Nc1c(O)[nH]c2ccccc12 | 13.2
COc1ccccc1N1CCN(/N=C/C(Cl)=C/c2ccccc2)CC1 | 13.3
CC(=O)c1ccc(NC(=S)NC(=O)CC(C)C)cc1 | 18.9

The listing continues:
mol | Calb biofilm kill
COc1cc(/C=N\NC(=O)CNC(=O)C2COc3ccccc3O2)ccc1O (centres undefined) | 19.6
C/C(=N\Nc1ccc(F)cc1F)c1cccs1 | 6.0
O=C(O)CNC(=O)C(Cc1ccccc1)NC(=O)OCc1ccccc1 (centres undefined) | 8.6
Cc1ccc(N(CCC(=O)NC(C)(C)C)S(=O)(=O)c2ccc(C)cc2)cc1 | 11.3
COc1ccc(CNC(=O)C2CCN(S(=O)(=O)N3CCC4(CC3)OCCO4)CC2)c(OC)c1 | 18.8
CC[C@@H](C)C(NC(=O)OC(C)(C)C)c1cn([C@@H](CCCCNC(=O)OC(C)(C)C)C(=O)N2CCN(C(=O)OC(C)(C)C)CC2)nn1 (some centres undefined) | 18.9
COCCNC(=S)NNc1cccc(C(=O)O)c1 | 3.1
CC1CCCCN1C(=O)CCn1c(=S)oc2ccccc21 (centres undefined) | 19.1
O=C(Cc1ccccc1)Nc1cccc(C(=O)N/N=C/c2ccco2)c1 | 9.2
COc1cc(/C=C/C(=O)OCC(=O)Nc2cccc(Oc3ccccc3)c2)ccc1O | 7.5
Clc1ccc(Nc2ncnc3c2nnn3Cc2ccccc2)cc1 | 19.4
CN1CCN(C(=O)/C=C/c2ccc3c(c2)OCO3)CC1 | 20.7
Cn1nnnc1Sc1ccc([N+](=O)[O-])cc1Cl | 1.7
CC1(C(=O)O)CCC(C(=O)N2CCCCC2)C1(C)C (centres undefined) | 23.4
CN1C(=O)NC(c2ccccc2)(C(F)(F)F)S/C1=C(/C#N)c1nnc(N2CCOCC2)n1-c1ccccc1 (centres undefined) | 9.5
CCCC(=O)NC(=S)Nc1cccc(Cl)c1N1CCCC1 | 14.3
CCOC(=O)C1(CCc2ccccc2)CCN(Cc2ccc(O)cc2)CC1 | 3.9
COc1ccc(NS(=O)(=O)c2cccc3cccnc23)cc1 | 11.1
CCOC(=O)Nc1ccc(OCc2nnc3c4ccccc4c(C)nn23)cc1 | 23.3
Cc1ccc(-c2[nH]nc3c2C(C)C(C#N)=C(N)O3)cc1 (centres undefined) | 13.0
COc1ccc2c(c1)c(C(=O)N/N=C/c1cn(C)c3ccccc13)c(C)n2C | 19.3
COc1ccc(/C=N/N=C2\SC(CC(=O)O)C(=O)N2c2ccccc2)cc1 (centres undefined) | 1.1
CC(C)(C)OC(=O)C(Cc1ccc(OC(C)(C)C)cc1)NC(=O)CNC(=O)CNC(=O)OCc1ccccc1 (centres undefined) | 5.6
COc1ccccc1OCc1ccc(C(=O)NN)o1 | 4.1
COc1ccc(C2=Nc3ccc(C)cc3C(c3ccccc3)N2CC(=O)NN)cc1 (centres undefined) | 12.1

Some of the entries so far, field by field:
COc1ccccc1OCc1ccc(C(=O)NN)o1
  Calb biofilm kill = 4.1

O=C(O)CNC(=O)C(Cc1ccccc1)NC(=O)OCc1ccccc1 (centres undefined)
  Calb biofilm kill = 8.6

O=C(Cc1ccccc1)Nc1cccc(C(=O)N/N=C/c2ccco2)c1
  Calb biofilm kill = 9.2

(further entries)
mol | Calb biofilm kill
CC(C)C(NS(=O)(=O)c1cccc2nsnc12)C(=O)Nc1nccs1 (centres undefined) | 13.2
CC1=C(C(=O)OCc2ccccc2)C(/C=C/c2ccccc2)N2C(=O)CCSC2=N1 (centres undefined) | 13.6
N#CC1=C(N)Oc2nc[nH]c(=O)c2C1c1cccs1 (centres undefined) | -12.4
O=C(CCl)NC1CCCc2ccccc21 (centres undefined) | 13.8
CN1C(=O)N(C)c2ccc(C=O)c3cccc1c23 | 11.5
Cc1ccc2oc(=O)c(/C=C(\O)c3sc(C)nc3C)nc2c1 | 10.6
CCC(=O)Nc1cccc(C2=NOC3(C2)C[C@H](C(N)=O)N(C(=O)CC#N)C3)c1 (some centres undefined) | 9.1
O=S(=O)(c1ccccc1)N1CCN=C1SCc1cccnc1 | 14.0
NS(=O)(=O)c1ccc(NC(=O)c2ccc(-c3ccccc3)cc2)cc1 | 13.5
CC1=NN(c2ccccc2)C(=O)/C1=C/N(C)C | 7.5
COc1ccc(Oc2ncccc2[N+](=O)[O-])cc1 | 21.9
Cc1c([N+](=O)[O-])c([N+](=O)[O-])nn1CC(=O)N1CCOCC1 | 13.5
O=C(O)c1ccccc1SCC(=O)N1c2ccccc2Sc2ccccc21 | 7.5
CS(=O)(=O)N1CCN(C(=O)NC2CCCCC2)CC1 | -7.0
CC1CCN(CCCCOc2ccccc2-c2ccccc2)CC1 | 8.1
COc1ccc(CCn2c(=O)c3cccnc3n(Cc3cccc([N+](=O)[O-])c3)c2=O)cc1OC | 11.9
COc1ccc(CCNC(=O)c2cc3c(=O)n(C)c4ccccc4c3n2C)cc1OC | 24.8
Cn1cnc2c(NCc3ccco3)ncnc21 | 26.4
Cc1ccccc1S(=O)(=O)c1c(C)cc(C)n(C)c1=O | 15.8
O=C(COc1ccccc1)N1CCc2ccccc21 | 15.3
Cc1cc(NC(=O)CSc2nnc3ccccn23)no1 | 18.9
O=C(N/N=C\c1cn[nH]c1-c1ccccc1)c1ccc([N+](=O)[O-])cc1 | 9.1
COc1ccc(OCCn2cnc(Cl)c2Cl)cc1 | 30.4
CCCCN(C)C(=O)c1nc2ccccn2c1CN(C)Cc1csc(C)n1 | 9.1
O=C(O)/C=C/C(=O)NNc1ncnc2ccccc12 | 18.1

Remaining list, next part.
molecule,Calb biofilm kill
COc1ccccc1/C(C)=N/NC(=S)NCc1ccccc1,11.5
CC(c1ccco1)N(C(=O)c1ccc(F)cc1)c1ccccn1 (centres undefined),-1.2
COc1ccc(/C=N/NC2=NCCCCC2)c(OC)c1,10.4
Cc1onc(-c2ccccc2)c1C(=O)N/N=C/c1c[nH]c2ccccc12,18.8
CC(C)NC(NC(=O)/C=C/c1ccccc1)C(Cl)(Cl)Cl (centres undefined),1.7
CCOC(=O)N1CCN(c2ccc(C(C)=O)cc2F)CC1,-2.4
CCOC(=O)c1csc(NC(=O)CSc2nnnn2-c2cccc(OC)c2)n1,4.4
CCCCCOP(=O)(c1ccccc1)c1ccccc1,12.4

A draw from above in order of molecular weight, smallest number first.
molecule,Calb biofilm kill
CC(c1ccco1)N(C(=O)c1ccc(F)cc1)c1ccccn1 (centres undefined),-1.2
CC(C)NC(NC(=O)/C=C/c1ccccc1)C(Cl)(Cl)Cl (centres undefined),1.7
CCOC(=O)c1csc(NC(=O)CSc2nnnn2-c2cccc(OC)c2)n1,4.4

The listing continues:
molecule,Calb biofilm kill
CCOC(=O)c1c(NC(NC(C)=O)C(Cl)(Cl)Cl)sc2c1CCCC2 (centres undefined),12.3
Cc1ccc(C(=O)N/N=C\c2ccc(-c3ccc([N+](=O)[O-])cc3)o2)cn1,15.9
Cc1c(Cl)cccc1NC(=S)NCc1ccc2c(c1)OCO2,15.7
COc1cc(OC)c(C(=O)NCC(c2cccs2)N(C)C)cc1OC (centres undefined),22.7
CCCCOc1cccc(C(=O)NC(=S)Nc2cccc(C(F)(F)F)c2)c1,24.6
O=C(O)c1ccc(NC2=C/C(=N/S(=O)(=O)c3ccccc3)c3ccccc3C2=O)cc1,16.7
O=C(CNCC1CCCCC1)Nc1ccc(N2CCCCC2)cc1,12.8
CCOC(=O)c1ccc(NC(=O)C(=O)NCc2ccccn2)cc1,10.6
O=C(O)c1cc(NS(=O)(=O)c2ccc(N3CCOCC3)c([N+](=O)[O-])c2)cc(C(=O)O)c1,1.7
CCOc1ccc(C(=O)NC2CC3CCCC(C2)N3CC(C)C)cc1 (centres undefined),6.6
Cc1nc(-c2nnc(SCC(=O)Nc3ccc(Cl)cc3)n2C)cs1,9.7
CCN(CC)c1ccc(/C=N/N2CCN(Cc3ccc(Cl)cc3)CC2)c(O)c1,14.8
O=C(/C=C/c1ccco1)Nc1cccc(NC(=O)/C=C/c2ccco2)n1,10.6
O=C(N/N=C/c1ccc([N+](=O)[O-])cc1)C(=O)N1CCCC1,18.6
O=C(CSCC(=O)N1CCCc2ccccc21)Nc1nc(-c2ccccc2)cs1,8.3
Cc1nc2ncccn2c1-c1csc(Nc2ccccc2)n1,24.5
CCOC(=O)c1ccc(S(=O)(=O)NNC(=O)COc2ccccc2C)cc1,9.2
CCCCCCCc1nc2nc(C)c(Br)c(=O)n2[nH]1,24.4

In the list so far, these have bromine:
molecule,Calb biofilm kill
O=C(O)CSC(C(=O)Nc1ccc(Br)cc1)c1ccccc1 (centres undefined),5.8
CCCCCCCc1nc2nc(C)c(Br)c(=O)n2[nH]1,24.4

From PubChem

Some of the compounds tested (hit frequency here may not be typical).
